UUG fidelity = alters start codon recognition fidelity in yeast. S. cerevisiae UUG-firefly luciferase reporter, luminescence/redox ratio. activity score, % at 18.7 µM. 350,000 tested, 0.13% active. AID 602363;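 active = replicate mean at a twofold rise or more, about +100% in these data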;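 also: firefly luciferase made from a UUG start codon reports start codon fidelity; reporter light over untreated wells divided by growth signal over untreated wells; some hits fall short of that in this replicate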
Numbers without * were called inactive. This is a subset; rates above refer to the full screens.

SMILES	UUG fidelity
COc1ccc(NC(=O)N2CCCCN3[C@H](CO)[C@@H](c4ccc(C#Cc5ccccc5)cc4)[C@H]3C2)cc1	12
C[C@H]1CN([C@@H](C)CO)C(=O)c2cccc(NS(C)(=O)=O)c2O[C@@H]1CN(C)C(=O)NC1CCCCC1	0
COc1cccc(S(=O)(=O)N2C[C@H](O)COC[C@@H]3O[C@H](CC(=O)N4CCOCC4)CC[C@H]32)c1	-2
OC[C@H]1[C@H](c2ccc(-c3cccnc3)cc2)[C@H]2CN(Cc3ccccn3)CCCCN21	-38
CCC(=O)N1CC[C@H]2[C@@H]1c1cc(-c3ccc(OC)cc3)ccc1N(C)[C@H]2CO	-4
Cc1ccc(S(=O)(=O)N(C)C[C@@H]2Oc3c(NC(=O)NC(C)C)cccc3C(=O)N([C@H](C)CO)C[C@@H]2C)cc1	8
COc1ccc(CN(C)C[C@H]2Oc3ccc(NS(=O)(=O)c4ccc(Cl)cc4)cc3C(=O)N([C@H](C)CO)C[C@@H]2C)cc1	0
CCCC(=O)Nc1ccc2c(c1)C(=O)N(C)C[C@H](OC)[C@@H](C)CN(CCc1ccccc1)[C@@H](C)CO2	12
O=S(=O)(c1ccccc1)N1CC[C@@H]2[C@H]1c1cc(C#Cc3ccccc3F)ccc1N[C@@H]2CO	-1
CN1CCN(C(=O)C[C@H]2CC[C@H]3[C@@H](COC[C@@H](O)CN3Cc3ccc(Oc4ccccc4)cc3)O2)CC1	-3
CC(C)NC(=O)N1[C@@H](CO)[C@@H]2c3ccccc3N(C(=O)Nc3ccc(F)cc3)C[C@@H]21	-2
O=S(=O)(c1ccc(F)cc1)N1CCCCN2[C@H](CO)[C@@H](c3ccc(C#CC4CCCC4)cc3)[C@H]2C1	0
C[C@H]1CN([C@@H](C)CO)C(=O)Cc2cc(NC(=O)Cc3cn(C)c4ccccc34)ccc2O[C@@H]1CN(C)C(=O)NC1CCCCC1	-1
CO[C@H]1CN(C)C(=O)c2cc(NC(=O)c3ccccc3)ccc2OC[C@@H](C)N(C(C)=O)C[C@H]1C	-5
COc1ccccc1CN1[C@H](CO)[C@H]2c3ccccc3N(C(=O)C3CCCC3)C[C@H]21	-2
CO[C@@H]1CN(C)C(=O)c2ccc(NC(C)=O)cc2OC[C@H](C)N(CCc2ccccc2)C[C@@H]1C	-3
C[C@@H]1CN([C@H](C)CO)C(=O)c2cc(NC(=O)Nc3ccccc3)ccc2O[C@@H]1CN(C)C(=O)Nc1ccc(F)cc1	-5
CCCNC(=O)Nc1ccc2c(c1)C(=O)N(C)C[C@@H](OC)[C@H](C)CN(C(=O)C1CC1)[C@@H](C)CO2	-8
COCC(=O)N1CC[C@@H]2[C@H]1c1cc(-c3ccc(OC)cc3)ccc1N(C)[C@H]2CO	-2
COc1cccc(-c2ccc3c(c2)[C@H]2[C@H](CCN2S(=O)(=O)c2ccccc2F)[C@H](CO)N3)c1	-25
COCC(=O)N(C)C[C@H]1[C@H](c2ccc(-c3ccccc3)cc2)[C@H](CO)N1C(C)=O	-4
C[C@H](NC(=O)C[C@H]1C[C@H]2c3cc(NC(=O)CC4CC4)ccc3O[C@H]2[C@H](CO)O1)c1ccccc1	-4
C[C@@H]1CN([C@H](C)CO)C(=O)c2cc(NC(=O)CCN3CCOCC3)ccc2O[C@H]1CN(C)C(=O)Nc1ccc(F)cc1	-16
C[C@@H]1CN([C@H](C)CO)C(=O)c2cc(NC(=O)NC3CCCCC3)ccc2O[C@@H]1CN(C)S(C)(=O)=O	1
O=C(NC[C@H]1[C@H](c2ccccc2)[C@@H](CO)N1C(=O)C1CC1)NC1CCCC1	11
C[C@@H]1CN([C@H](C)CO)C(=O)Cc2cc(NC(=O)Nc3cccc4ccccc34)ccc2O[C@@H]1CN(C)C(=O)Nc1ccccc1	-10
CCCC(=O)Nc1ccc2c(c1)C(=O)N(C)C[C@@H](OC)[C@H](C)CN(Cc1cccc(F)c1)[C@H](C)CO2	-2
C[C@H](CO)N1C[C@H](C)[C@H](CN(C)S(=O)(=O)c2ccccc2)Oc2c(NC(=O)C3CCCCC3)cccc2C1=O	6
C[C@H](CO)N1C[C@H](C)[C@@H](CN(C)S(=O)(=O)c2cn(C)cn2)Oc2ccc(NC(=O)Nc3ccc(C(F)(F)F)cc3)cc2C1=O	-5
CO[C@H]1CN(C)C(=O)c2ccc(NC(=O)C3CCC3)cc2OC[C@@H](C)N(Cc2ccccn2)C[C@@H]1C	-16

SMILES	UUG fidelity
CCCC#Cc1ccc([C@@H]2[C@@H](CO)N3CCCCN(Cc4cncnc4)C[C@H]23)cc1	-11
CN1C(=O)c2cc(NC(=O)C3CCCC3)ccc2OC[C@@H]2O[C@H](CC(=O)O)CC[C@H]21	-9
CO[C@@H]1CN(C)C(=O)c2cc(NC(=O)NC3CCCCC3)ccc2OC[C@H](C)N(CC2CCOCC2)C[C@@H]1C	-15
O=C(C[C@H]1C[C@@H]2c3cc(NC(=O)C4CCOCC4)ccc3O[C@@H]2[C@@H](CO)O1)NCCc1ccccc1	-4
CCC(=O)N1[C@@H](CO)[C@@H]2c3ccccc3N(C(=O)c3ccncc3)C[C@@H]21	-5
COc1ccc(S(=O)(=O)N(C)C[C@@H]2Oc3ccc(NC(=O)Nc4ccc(F)cc4)cc3C(=O)N([C@@H](C)CO)C[C@@H]2C)cc1	16
CCN1[C@@H]2c3ccc(-c4ccccc4OC)c(=O)n3C[C@@H]2[C@@H](CO)[C@@H]1C(=O)Nc1nccs1	12
C[C@H](CO)N1C[C@H](C)[C@H](CN(C)CC2CCCC2)OCc2cnnn2CCCC1=O	10
C[C@@H]1CN([C@@H](C)CO)C(=O)Cc2cc(NC(=O)Nc3ccccc3)ccc2O[C@H]1CN(C)S(=O)(=O)c1ccc(Cl)cc1	17
CCCNC(=O)Nc1ccc2c(c1)C(=O)N(C)[C@H]1CC[C@@H](CC(=O)NCCCN(C)C)O[C@@H]1CO2	26
Cc1cc(C(=O)Nc2cccc3c2O[C@@H](CN(C)S(=O)(=O)c2cn(C)cn2)[C@H](C)CN([C@H](C)CO)C3=O)n(C)n1	-6
CO[C@H]1CN(C)C(=O)c2cc(NC(=O)NC3CCCCC3)ccc2OC[C@@H](C)N(CC2CCOCC2)C[C@@H]1C	-11
C[C@@H]1CN([C@H](C)CO)C(=O)c2cc(NC(=O)NC3CCCCC3)ccc2O[C@H]1CN(C)Cc1ccc(C(=O)O)cc1	18
O=C(c1ccncc1)N1C[C@H]2[C@@H](c3ccccc31)[C@H](CO)N2Cc1ccccc1F	0
C[C@H](CO)N1C[C@H](C)[C@H](CN(C)S(=O)(=O)c2ccc(Oc3ccccc3)cc2)OCc2cn(nn2)CCCC1=O	0
C/C=C/c1ccc([C@@H]2[C@@H](CO)N[C@@H]2CN(CC)C(=O)CN2CCOCC2)cc1	-5
O=C(NC[C@H]1[C@H](c2ccccc2)[C@H](CO)N1C(=O)Cc1cccnc1)C1CCC1	-9
CO[C@@H]1CN(C)C(=O)c2cc(NC(=O)C3CCOCC3)ccc2OC[C@@H](C)N(CC2CCOCC2)C[C@H]1C	-4
CC(=O)N1CC[C@@H]2[C@H](CO)Nc3ccc(-c4cccc(F)c4)cc3[C@@H]21	-9
CO[C@H]1CN(C)C(=O)c2cc(NS(C)(=O)=O)ccc2OC[C@H](C)N(CCC(F)(F)F)C[C@@H]1C	-3
OC[C@@H]1[C@@H](c2ccc(/C=C/c3ccccc3)cc2)[C@@H]2CN(Cc3cccnc3)CCCCN12	-17
O=C(C[C@@H]1CC[C@@H]2[C@H](COC[C@H](O)CN2S(=O)(=O)c2ccccc2)O1)NCc1ccc2c(c1)OCO2	17
COc1ccc(S(=O)(=O)N2CCCCN3[C@H](C2)[C@@H](c2ccc(C#CC(C)C)cc2)[C@@H]3CO)cc1	8
CO[C@@H]1CN(C)C(=O)c2cc(NC(=O)C3CC3)ccc2OC[C@H](C)N(CC2CCCC2)C[C@H]1C	-8
C[C@@H]1CN([C@H](C)CO)C(=O)c2c(c3ccccc3n2C)-c2ccccc2CO[C@H]1CN(C)S(=O)(=O)c1ccc(C#N)cc1	1
CCN1[C@@H]2c3ccc(-c4ccccc4)c(=O)n3C[C@H]1[C@H](CO)[C@H]2C(=O)NCc1ccccc1	9
COc1cccc(CN2[C@H](CO)[C@@H]3c4ccccc4N(C(=O)c4ccncc4)C[C@@H]32)c1	0
CCC(=O)N1[C@H](CO)[C@H](c2ccccc2)[C@@H]1CN(CC)C(=O)c1ccccc1	8
CO[C@H]1CN(C)C(=O)c2ccc(NS(C)(=O)=O)cc2OC[C@@H](C)N(C(=O)C2CC2)C[C@@H]1C	1
C[C@H](NC(=O)[C@@H]1[C@@H](CO)[C@@H]2Cn3c(cccc3=O)[C@@H]2N1CC1CC1)c1ccccc1	-5

Four records drawn at random from the list so far, as already listed:
SMILES	UUG fidelity
CO[C@H]1CN(C)C(=O)c2ccc(NC(=O)C3CCC3)cc2OC[C@@H](C)N(Cc2ccccn2)C[C@@H]1C	-16
CCCNC(=O)Nc1ccc2c(c1)C(=O)N(C)C[C@@H](OC)[C@H](C)CN(C(=O)C1CC1)[C@@H](C)CO2	-8
CO[C@@H]1CN(C)C(=O)c2cc(NC(=O)C3CCOCC3)ccc2OC[C@@H](C)N(CC2CCOCC2)C[C@H]1C	-4
O=C(NC[C@H]1[C@H](c2ccccc2)[C@H](CO)N1C(=O)Cc1cccnc1)C1CCC1	-9

Next section.
SMILES	UUG fidelity
CN(C)C(=O)C[C@@H]1C[C@@H]2c3cc(NC(=O)Cc4ccncc4)ccc3O[C@@H]2[C@H](CO)O1	0
CCNC(=O)C[C@@H]1CC[C@@H]2[C@H](COC[C@H](O)CN2Cc2ccc(Cl)c(Cl)c2)O1	10
CO[C@@H]1CN(C)C(=O)c2ccc(NC(=O)C3CCC3)cc2OC[C@H](C)N(Cc2ccc(F)cc2)C[C@H]1C	5
C[C@H]1CN([C@@H](C)CO)C(=O)CCCn2cc(nn2)CO[C@H]1CN(C)S(=O)(=O)c1ccc2c(c1)OCCCO2	-4
CN1[C@@H]2c3ccc(-c4ccccc4)c(=O)n3C[C@H]1[C@H](CO)[C@H]2C(=O)NCC1CC1	-11
C[C@@H]1CN([C@H](C)CO)C(=O)c2cc(NC(=O)Cn3cnnn3)ccc2O[C@H]1CN(C)C(=O)Nc1ccc2c(c1)OCO2	-12
OC[C@H]1[C@@H](c2ccc(C#CC3CCCC3)cc2)[C@@H]2CN(CCC(F)(F)F)CCCCN12	10
CN(C)C(=O)c1ccc(-c2ccc([C@H]3[C@@H](CO)N4CCCCN(C(=O)C5CCC5)C[C@@H]34)cc2)cc1	4
CCC(=O)Nc1ccc2c(c1)C(=O)N(C)C[C@@H](OC)[C@H](C)CN(C(=O)COC)[C@@H](C)CO2	-2
O=C(Nc1cc(F)ccc1F)N1CCCCN2[C@H](CO)[C@H](c3ccc(-c4ccccc4)cc3)[C@H]2C1	-2
CNC(=O)C[C@H]1CC[C@@H]2[C@H](COC[C@@H](O)CN2C(=O)c2ccccn2)O1	-6
OC[C@H]1[C@@H](c2ccc(C3=CCCC3)cc2)[C@H]2CN(CCC(F)(F)F)CCCCN21	11
OC[C@H]1[C@@H]2c3ccccc3NC[C@@H]2N1CC1CCOCC1	-14
CO[C@@H]1CN(C)C(=O)c2ccc(NC(C)=O)cc2OC[C@@H](C)N(C(=O)C2CCOCC2)C[C@H]1C	1
CCCN1C[C@@H](C)[C@@H](OC)CN(C)C(=O)c2cc(NC(=O)NC3CCCCC3)ccc2OC[C@@H]1C	4
COc1cccc(S(=O)(=O)N2CCCCN3[C@H](CO)[C@@H](c4ccc(C#CC5CC5)cc4)[C@H]3C2)c1	-3
CO[C@@H]1CN(C)C(=O)c2ccc(NC(=O)C3CCC3)cc2OC[C@H](C)N(Cc2nccs2)C[C@@H]1C	10
O=S(=O)(c1ccccc1)N1CCCCN2[C@@H](CO)[C@@H](c3ccc(-c4ccccc4)cc3)[C@@H]2C1	11
O=C(c1ccc2c(c1)OCO2)N1C[C@@H]2[C@H](c3ccccc31)[C@H](CO)N2C(=O)CC1CC1	-1
O=C(C[C@@H]1C[C@@H]2c3cc(NS(=O)(=O)c4ccc(F)cc4)ccc3O[C@@H]2[C@@H](CO)O1)NCc1ccncc1	-7
C[C@@H]1CN([C@@H](C)CO)C(=O)c2cccc(NC(=O)Nc3ccc(F)cc3)c2O[C@H]1CN(C)Cc1ccc(Cl)c(Cl)c1	-1
C[C@@H]1CN([C@@H](C)CO)C(=O)Cc2cc(NS(=O)(=O)c3ccc(Cl)cc3)ccc2O[C@@H]1CN(C)Cc1ccncc1	5
CCCNC(=O)C[C@H]1C[C@H]2c3cc(NS(C)(=O)=O)ccc3O[C@H]2[C@@H](CO)O1	-12
CO[C@@H]1CN(C)C(=O)c2cc(NC(=O)C3CC3)ccc2OC[C@@H](C)N(Cc2ccncc2)C[C@H]1C	-8
COCCNC(=O)C[C@@H]1CC[C@@H]2[C@@H](COc3ccc(NC(=O)c4cc(C)on4)cc3C(=O)N2C)O1	-19
CCC(=O)N1CCCCN2[C@H](CO)[C@@H](c3ccc(C#Cc4cccnc4)cc3)[C@H]2C1	-4

Among those listed so far, these contain a Cl atom.
SMILES	UUG fidelity
COc1ccc(CN(C)C[C@H]2Oc3ccc(NS(=O)(=O)c4ccc(Cl)cc4)cc3C(=O)N([C@H](C)CO)C[C@@H]2C)cc1	0
C[C@@H]1CN([C@@H](C)CO)C(=O)Cc2cc(NC(=O)Nc3ccccc3)ccc2O[C@H]1CN(C)S(=O)(=O)c1ccc(Cl)cc1	17
CCNC(=O)C[C@@H]1CC[C@@H]2[C@H](COC[C@H](O)CN2Cc2ccc(Cl)c(Cl)c2)O1	10
C[C@@H]1CN([C@@H](C)CO)C(=O)c2cccc(NC(=O)Nc3ccc(F)cc3)c2O[C@H]1CN(C)Cc1ccc(Cl)c(Cl)c1	-1
C[C@@H]1CN([C@@H](C)CO)C(=O)Cc2cc(NS(=O)(=O)c3ccc(Cl)cc3)ccc2O[C@@H]1CN(C)Cc1ccncc1	5

Screening data: PubChem BioAssay, Broad Institute
